High-throughput results: PubChem, Broad Institute
YB-1 expr inh = inhibitors of YB-1 gene expression, primary screen, cell-based, fluorescence. U2OS, qRT-PCR YB-1 vs CDIP delta delta Cp, 16 h; active compounds read high; zero = DMSO, each unit about twofold. delta delta Cp (YB-1 minus CDIP) (no concentration beside the values). actives 0.37% (n = 30,000). AID 434959, 2010;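 active = delta delta Cp rounded down to an integer at or above 3, about 3 SD of DMSO wells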;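 note: higher means less YB-1 transcript or more CDIP transcript relative to DMSO; stock transfer was 100 nL into about 100 µL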
MITF inhib = inhibitors of MITF, primary screen, MITF inhibitor project, cell-based, luminescence; TRPM1 promoter luciferase, 24 h; inhibition, % (no concentration beside the values); actives 0.28% (n = 37,000); AID 2240, 2010;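 active = most replicates at 85% or more, or half of them and the mean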;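 note: human melanocyte line stably carrying TRPM1 promoter luciferase reporter; 0% = vehicle wells and 100% = a positive control; the first replicate is given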
Hedgehog inh = Hedgehog pathway signaling inhibitors, primary screen, luminescence, Shh-LIGHT2 cells, Gli-luciferase | AID 2313, 2010 | Shh-LIGHT2 Gli-luciferase reporter, 30 h | inhibition, % (no concentration beside the values) | actives 2.1% (n = 22,000);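 active = replicate mean of 65% or more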;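 note: pathway switched on by Shh-conditioned medium diluted 1 in 25 in low serum; 100 nL library stock added to about 40 µL; 0% = median of neutral wells and 100% = positive control level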
PD-1 reversal = activators reversing PD-1 mediated T-cell inhibition, primary screen, luminescence, primary human CD4 T cells, PD-L1 beads | 29,000 tested, under 10 active | activation, % (concentration not given with the values) | CellTiter-Glo 96 h | AID 2316, 2010;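 active = replicate mean of 50% or more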;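 note: 0% = median vehicle wells and 100% = positive control; 100 nL library stock added to about 50 µL; numbers are from one replicate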
Active calls of the source: *; · = not tested or not shown.

SMILES	YB-1 expr inh	MITF inhib	Hedgehog inh	PD-1 reversal
CCN(Cc1ccncc1)C(=O)C(CO)c1ccccc1 (centres undefined)	-0.11	6	-6	·
C[C@H]1CN([C@@H](C)CO)C(=O)c2cccc(NC(=O)Nc3ccc(C(F)(F)F)cc3)c2O[C@H]1CN(C)S(=O)(=O)c1cn(C)cn1	-0.037	-42	-22	·
O=C1c2ccccc2C(=O)N1CSc1nc2ccccc2s1	-0.39	-8	7	-0.5
C[C@@H]1CN([C@@H](C)CO)C(=O)c2cc(NC(=O)CCCN(C)C)ccc2O[C@@H]1CN(C)Cc1ccc(C(F)(F)F)cc1	-0.41	6	23	0.8
C[C@@H]1CN([C@H](C)CO)C(=O)Cc2cc(NS(=O)(=O)c3ccc(F)cc3)ccc2O[C@@H]1CN(C)Cc1ccc(C(=O)Nc2ccccc2N)cc1	-0.25	18	·	-2.1
CNC[C@@H]1Oc2ccc(NS(=O)(=O)c3ccc(OC)cc3)cc2C(=O)N([C@@H](C)CO)C[C@@H]1C	0.081	4	18	·
C[C@H]1CN([C@@H](C)CO)C(=O)c2cc(NC(=O)Nc3ccc4c(c3)OCO4)ccc2O[C@H]1CN(C)S(C)(=O)=O	0.17	9	-37	2.0
CC(C)NC(=O)N(C)C[C@@H]1Oc2c(NC(=O)Nc3ccc4c(c3)OCO4)cccc2C(=O)N([C@H](C)CO)C[C@H]1C	0.39	-9	-14	-0.2
Cc1cc(=O)oc2cc(OC(C)C(=O)Nc3sc4c(c3C#N)CCCC4)ccc12 (centres undefined)	·	15	·	0.3
COc1ccc(S(=O)(=O)N(C)C[C@@H]2Oc3ccc(NC(=O)NC4CCCCC4)cc3C(=O)N([C@@H](C)CO)C[C@@H]2C)cc1	0.044	5	-1	2.0
C[C@H]1CN([C@@H](C)CO)C(=O)c2cccc(NC(=O)Nc3ccc(C(F)(F)F)cc3)c2O[C@@H]1CN(C)C(=O)Nc1cccc2ccccc12	-0.1	39	-28	·
C[C@H]1CN([C@@H](C)CO)C(=O)c2cccc(NS(C)(=O)=O)c2O[C@H]1CN(C)C(=O)Nc1ccccc1	-0.07	2	14	2.8
Cc1c(NC(=O)CN(c2cccc(Br)c2)S(C)(=O)=O)cccc1[N+](=O)[O-]	·	1	·	-0.4
C[C@H]1CN([C@@H](C)CO)C(=O)c2cccc(NS(=O)(=O)c3ccccc3)c2O[C@@H]1CN(C)C(=O)Nc1ccccc1	0.014	1	-8	1.6
COc1ccc(S(=O)(=O)N(C)C[C@H]2Oc3c(NC(=O)CCCCCC(=O)Nc4ccccc4N)cccc3C(=O)N([C@@H](C)CO)C[C@H]2C)cc1	-0.15	12	·	-0.5
C[C@@H]1CN([C@H](C)CO)C(=O)c2cccc(NC(=O)c3nc4ccccc4s3)c2O[C@@H]1CN(C)S(=O)(=O)c1ccccc1	-0.17	9	-7	·
CCCNC(=O)Cn1nc(C(F)(F)F)cc1C	0.19	-16	12	0.9
COc1ccc(NC(=O)N(C)C[C@H]2Oc3ccc(N(C)C)cc3C(=O)N([C@@H](C)CO)C[C@H]2C)cc1	0.15	-2	-1	1.6
Cc1ccc(OCC(=O)Nc2ccc(Cl)c(-c3nc4ccccc4s3)c2)cc1	·	-6	·	0.4
COc1ccc2cc(C(=O)Nc3ccc(O)cc3)sc(=O)c2c1OC	0.1	-16	28	-0.2
C[C@H](CO)N1C[C@H](C)[C@H](CN(C)C(=O)Nc2cccc3ccccc23)Oc2c(NC(=O)Nc3ccccc3)cccc2C1=O	-0.49	31	-32	-1.2
CCC(=O)N1N=C(c2ccccc2)CC1c1cc2cc(OC)ccc2nc1Cl (centres undefined)	0.13	-1	·	0.5
C[C@@H]1CN([C@@H](C)CO)C(=O)Cc2cc(NS(=O)(=O)c3ccccc3)ccc2O[C@@H]1CN(C)Cc1ccc2c(c1)OCO2	-0.26	-6	-1	1.1
C[C@@H]1CN([C@H](C)CO)C(=O)c2cc(NC(=O)Cc3ccccc3)ccc2O[C@H]1CN(C)Cc1ccc(C(=O)Nc2ccccc2N)cc1	0.13	8	·	0.0
C=CCN1C(=O)/C(=C2/Sc3ccccc3N2CC)SC1=S	-0.045	0	-33	0.0
Nc1nc(SCC(=O)Nc2ccc(Br)cc2F)n[nH]1	·	-26	·	2.5
COC(=O)c1cc(O)cc(OC)c1C(=O)c1c(O)cc(C)cc1OC	0.59	4	8	0.0
CC(C)NC(=O)N(C)C[C@@H]1Oc2ccc(NC(=O)C3CCCCC3)cc2C(=O)N([C@@H](C)CO)C[C@H]1C	0.41	-7	·	-1.2
C[C@@H]1CCCCO[C@H](CN(C)Cc2ccc(C(=O)O)cc2)[C@@H](C)CN([C@H](C)CO)C(=O)c2cc(NC(=O)Nc3ccccc3)ccc2O1	-0.058	-5	-30	1.2
COc1ccc(NC(=O)N(C)C[C@H]2Oc3c(NC(=O)Nc4ccc(F)cc4)cccc3C(=O)N([C@H](C)CO)C[C@@H]2C)cc1	0.62	-10	12	0.6
C[C@H](CO)N1C[C@H](C)[C@H](CN(C)CC2CC2)Oc2ccc(NC(=O)c3ccncc3)cc2CC1=O	0.032	3	-12	·
COc1cc(/C=C/CO)cc(OC)c1OC/C=C(\C)CCC=C(C)C	0.99	-12	19	-0.9
Cc1noc(C)c1NC(=O)N(C)C[C@@H]1Oc2ccc(NC(=O)Nc3ccc(C(F)(F)F)cc3)cc2CC(=O)N([C@H](C)CO)C[C@H]1C	0.39	1	1	0.8
C[C@@H]1CN([C@@H](C)CO)C(=O)c2cccc(NS(=O)(=O)c3ccccc3)c2O[C@@H]1CN(C)CC1CC1	0.77	-15	-31	1.5
C[C@@H]1CN([C@H](C)CO)C(=O)c2cc(NS(=O)(=O)c3ccccc3)ccc2O[C@H]1CN(C)C(=O)Nc1ccc2c(c1)OCO2	-0.092	11	·	1.1
C/C(=C/C(=O)O)CCC1C(C)CCC2C(C)(C=O)C(O)CCC12C (centres undefined)	-0.32	7	1	-1.3
CC(=O)c1ccccc1OCC(O)Cn1ccnc1 (centres undefined)	·	6	·	0.9
C[C@H](CO)N1C[C@H](C)[C@H](CN(C)S(=O)(=O)c2ccccc2)Oc2ccc(NC(=O)NC3CCCCC3)cc2C1=O	-0.25	-7	8	-1.4
CC(Oc1ccc(C(=O)Nc2ccc(Cl)cc2)cc1)C(=O)Nc1cc(Cl)ccc1Cl (centres undefined)	·	25	·	-1.7
COc1cc2occc2c(O[C@@H]2O[C@H](CO)[C@@H](O)[C@H](O)[C@H]2O)c1CCC(=O)O	-0.42	6	-14	-1.2
Cc1noc(C)c1S(=O)(=O)N(C)C[C@H]1Oc2c(NC(=O)c3ccc(-c4nccs4)cc3)cccc2C(=O)N([C@@H](C)CO)C[C@H]1C	1.7	12	4	0.1
C[C@H]1CN([C@@H](C)CO)C(=O)c2cc(NC(=O)Nc3ccc4c(c3)OCO4)ccc2O[C@@H]1CN(C)Cc1ccc(C(F)(F)F)cc1	0.061	7	4	1.6
C[C@@H]1CN([C@H](C)CO)C(=O)Cc2cc(NC(=O)Nc3cccc4ccccc34)ccc2O[C@@H]1CN(C)S(=O)(=O)c1ccc(F)cc1	-0.14	4	8	-2.8
C[C@H](CO)N1C[C@H](C)[C@H](CN(C)C(=O)NC2CCCCC2)Oc2ccc(NC(=O)NC3CCCCC3)cc2C1=O	-0.15	-3	·	0.0
C[C@H]1CN([C@@H](C)CO)C(=O)c2cc(NC(=O)CCC(F)(F)F)ccc2O[C@H]1CN(C)C(=O)Nc1ccc2c(c1)OCO2	0.39	-8	-31	-1.3
C[C@@H]1CN([C@@H](C)CO)C(=O)c2cc(NS(C)(=O)=O)ccc2O[C@@H]1CN(C)S(=O)(=O)c1ccc(Cl)cc1	-0.12	-1	·	0.8
C[C@@H]1CN([C@@H](C)CO)C(=O)c2cccc(NC(=O)c3nc4ccccc4s3)c2O[C@@H]1CN(C)C(=O)Nc1cccc2ccccc12	0.08	-1	7	·
CC(C)NC(=O)Nc1ccc2c(c1)C(=O)N([C@H](C)CO)C[C@H](C)[C@@H](CN(C)Cc1ccncc1)OCCCC[C@@H](C)O2	0.12	-1	5	·
COc1ccc(NC(=O)N(C)C[C@@H]2Oc3c(NS(=O)(=O)c4ccccc4)cccc3C(=O)N([C@@H](C)CO)C[C@@H]2C)cc1	-0.13	2	13	-1.8
C[C@@H]1CN([C@@H](C)CO)C(=O)c2cccc(NC(=O)c3ccncc3)c2O[C@H]1CN(C)CC1CC1	-0.19	-1	-11	-0.2

At a glance, part of the list above.
SMILES	YB-1 expr inh	MITF inhib	Hedgehog inh	PD-1 reversal
C[C@H](CO)N1C[C@H](C)[C@H](CN(C)S(=O)(=O)c2ccccc2)Oc2ccc(NC(=O)NC3CCCCC3)cc2C1=O	-0.25	-7	8	-1.4
CC(Oc1ccc(C(=O)Nc2ccc(Cl)cc2)cc1)C(=O)Nc1cc(Cl)ccc1Cl (centres undefined)	·	25	·	-1.7
COc1cc2occc2c(O[C@@H]2O[C@H](CO)[C@@H](O)[C@H](O)[C@H]2O)c1CCC(=O)O	-0.42	6	-14	-1.2
Cc1noc(C)c1S(=O)(=O)N(C)C[C@H]1Oc2c(NC(=O)c3ccc(-c4nccs4)cc3)cccc2C(=O)N([C@@H](C)CO)C[C@H]1C	1.7	12	4	0.1
C[C@H]1CN([C@@H](C)CO)C(=O)c2cc(NC(=O)Nc3ccc4c(c3)OCO4)ccc2O[C@@H]1CN(C)Cc1ccc(C(F)(F)F)cc1	0.061	7	4	1.6
C[C@@H]1CN([C@H](C)CO)C(=O)Cc2cc(NC(=O)Nc3cccc4ccccc34)ccc2O[C@@H]1CN(C)S(=O)(=O)c1ccc(F)cc1	-0.14	4	8	-2.8
C[C@H](CO)N1C[C@H](C)[C@H](CN(C)C(=O)NC2CCCCC2)Oc2ccc(NC(=O)NC3CCCCC3)cc2C1=O	-0.15	-3	·	0.0
C[C@H]1CN([C@@H](C)CO)C(=O)c2cc(NC(=O)CCC(F)(F)F)ccc2O[C@H]1CN(C)C(=O)Nc1ccc2c(c1)OCO2	0.39	-8	-31	-1.3
C[C@@H]1CN([C@@H](C)CO)C(=O)c2cc(NS(C)(=O)=O)ccc2O[C@@H]1CN(C)S(=O)(=O)c1ccc(Cl)cc1	-0.12	-1	·	0.8
C[C@@H]1CN([C@@H](C)CO)C(=O)c2cccc(NC(=O)c3nc4ccccc4s3)c2O[C@@H]1CN(C)C(=O)Nc1cccc2ccccc12	0.08	-1	7	·
CC(C)NC(=O)Nc1ccc2c(c1)C(=O)N([C@H](C)CO)C[C@H](C)[C@@H](CN(C)Cc1ccncc1)OCCCC[C@@H](C)O2	0.12	-1	5	·

Carrying on.
SMILES	YB-1 expr inh	MITF inhib	Hedgehog inh	PD-1 reversal
Cc1ccc2ccc(C(Nc3ccccn3)c3c(F)cccc3Cl)c(O)c2n1 (centres undefined)	·	58	·	-12
CC(Oc1ccc(-c2ccccc2)cc1)C(=O)Nc1ccccc1[N+](=O)[O-] (centres undefined)	·	-10	·	1.3
COc1ccc(C(=O)N2CCNC(=O)C2CC(=O)Nc2ccc(C)cc2)cc1 (centres undefined)	·	-2	·	3.2
C[C@H](CO)N1C[C@H](C)[C@H](CN(C)C)Oc2ccc(NS(=O)(=O)c3cccs3)cc2CC1=O	0.21	6	-11	1.5
CC(=O)Nc1cc(NC(=O)CCCC(=O)O)ccc1Cl	·	-9	·	2.4
C[C@@H]1CCCCO[C@H](CN(C)Cc2ccc3c(c2)OCO3)[C@@H](C)CN([C@H](C)CO)C(=O)c2cc(NS(=O)(=O)c3cn(C)cn3)ccc2O1	0.22	2	33	2.2
COc1cc(C(=O)O)cc(OC)c1O	0.35	-11	-26	·
C[C@@H]1CN([C@H](C)CO)C(=O)c2cccc(NC(=O)c3cnccn3)c2O[C@@H]1CN(C)Cc1ccc(Cl)c(Cl)c1	-0.52	-6	34	-1.9
COC(=O)Nc1ccc(N=Cc2cccs2)cc1	-0.2	12	-21	1.7
COC(=O)c1ccc([C@H]2C(C#N)=C(N)C(C#N)(C#N)C3=CCC(C(C)(C)C)C[C@@H]32)cc1 (some centres undefined)	0.11	80	84*	-6.9
Cc1cc(C(=O)Nc2cccc3c2O[C@@H](CN(C)Cc2ccc(C(=O)Nc4ccccc4N)cc2)[C@@H](C)CN([C@H](C)CO)C3=O)n(C)n1	-0.73	-13	·	-0.9
CCC1C(=O)N=C(SCC(=O)Nc2ccc(Br)cn2)NC1=O (centres undefined)	0.16	1	13	0.5
C[C@H]1CN([C@@H](C)CO)C(=O)c2cc(NC(=O)CCN3CCOCC3)ccc2O[C@@H]1CN(C)Cc1ccc(-c2ccccc2)cc1	-0.22	0	·	·
C[C@H]1CN([C@@H](C)CO)C(=O)Cc2cc(NS(=O)(=O)c3cccs3)ccc2O[C@@H]1CN(C)C(=O)Nc1ccc(F)cc1	-0.15	-8	-11	·
CCOC(=O)c1cccc(NC(=O)COc2ccc(Br)cc2)c1	·	9	·	-1.8
CC(C)NC(=O)Nc1ccc2c(c1)C(=O)N([C@@H](C)CO)C[C@@H](C)[C@H](CN(C)Cc1ccncc1)O2	-0.072	7	14	1.0
C[C@@H]1CN([C@H](C)CO)C(=O)Cc2cc(NS(=O)(=O)c3ccc(Cl)cc3)ccc2O[C@@H]1CN(C)C(=O)NC1CCCCC1	-0.1	2	53	0.3
C=CC[n+]1ccc2ccccc2c1	0.17	10	-22	2.0

The list is partial. The share of hits here may be higher or lower than overall.
